Calb FLC: C. albicans growth modulation with fluconazole. C. albicans CaCi-2 (fluconazole-resistant clinical isolate) + fluconazole, Alamar Blue growth, 48 h. growth inhibition, % (no concentration beside the values). 300,000 compounds, 0.57% hits. AID 1979;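 active = most replicates above 75%; inconclusive = exactly half above 75%; inactive = most below 75%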;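 note: all wells also contain fluconazole at 8 µg/ml as a sub-toxic cotreatment; 0% = median of DMSO wells and 100% = median of geldanamycin control wells; wells of about 8 µL received 7.5 nL stock; the first replicate is given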
Vif TR-FRET: inhibitors of Vif binding to APOBEC3G peptide, primary screen, biochemical, TR-FRET, GST-Vif 1-94, biotin-A3G peptide, dose response retest (AID 1117319); inhibition, %, or IC50 in µM where a hit was titrated; TR-FRET GST-Vif / biotin-A3G peptide binding; higher % means a stronger effect; test concentration not given here; strong numbers were not always called active; 260,000 compounds, 0.57% hits;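 active = above the screen mean plus three standard deviations and confirmed in dose response; inconclusive = results disagree or hit not tested in dose response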;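 note: Vif residues 1-94 fused to GST binding biotinylated APOBEC3G peptide 110-148; 0% = full assay without inhibitor and 100% = GST in place of GST-Vif; retest series ran down from 100 µM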
RanGTP-Imp inh: inhibitors of RanGTP-importin-beta interaction, primary screen, biochemical, FRET, CFP-Ran, YFP-importin-beta, homogeneous | cell-free CFP-Ran/YFP-importin-beta FRET ratio | inhibition, % (concentration not given with the values) | 300,000 compounds, 1.1% hits | AID 2216;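 active = most replicates above 15%; inconclusive = exactly half above 15%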;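 note: 0% = DMSO wells and 100% = Ran loaded with GDP instead of GTP; wells of about 40 µL received 100 nL stock; the first replicate is given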
LANA-H2A inh: blocks KSHV LANA binding to histone H2A/H2B | inhibition, % (no concentration beside the values) | cell-free LANA-H2A/H2B peptide, fluorescence polarization | 320,000 compounds, 0.6% hits | Q9QR71; in the data active = inhibition mostly above about 10%, no sharp cut-off; inactive = mostly below about 6.7%;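 note: stock transfer was 7.5 nL into about 10 µL; 0% = median of vehicle wells and 100% = median of positive control wells; one replicate is shown; the record names a cut of 25% in any replicate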
Beta apoptosis: blocks beta cell apoptosis. INS-1E cytokine-induced death, ATP luminescence, 48 h; percent of positive-control rescue, neutral wells zero. protection from apoptosis, % (no concentration beside the values). 300,000 compounds, 0.8% hits. AID 435005;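 active = all replicates at 75% or more, or half of them and the mean; inconclusive = half reach 75% but not the mean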;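 note: 0% = cytokine-treated negative control wells and 100% = positive control rescue; higher means more ATP so stronger rescue from cytokine killing; wells of about 40 µL received 100 nL stock; the first replicate is given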
Bfl-1 A1 inh: inhibitors of the anti-apoptotic protein A1, read as caspase activation | MEF A1-2A-BIM cells, Caspase-Glo 3/7 luminescence, 3 h; percent of clofoctol response, vehicle zero | caspase activation, % (test concentration not listed) | 330,000 compounds, 0.066% hits | AID 2462;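 active = over half of replicate activation scores above 10%, or exactly half above 10 with the replicate mean above 10; inconclusive = replicate mean below 10 yet half the replicates above 10; inactive = over half of replicates below 10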;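 note: wells of about 30 µL received 50 nL stock; many hits fall short of the cut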
AF4-AF9 inh: inhibitors of human MLL-AF4/AF9 interaction; inhibition, % at 10 µM; AID 651704; AlphaScreen, biotin-AF4 peptide binding to FLAG-AF9; 350,000 compounds, 0.47% hits;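 active = every replicate reaching a set inhibition limit, whatever the replicate mean, cut at about 25% in these data; inconclusive = mean inhibition reaches that limit but some replicates miss it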;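 note: 0% = plate neutral control median and 100% = total signal loss; the record names both 10 and 1 µM as test concentration; the first replicate is given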
Target sequence (P42568 whole entry, looked up): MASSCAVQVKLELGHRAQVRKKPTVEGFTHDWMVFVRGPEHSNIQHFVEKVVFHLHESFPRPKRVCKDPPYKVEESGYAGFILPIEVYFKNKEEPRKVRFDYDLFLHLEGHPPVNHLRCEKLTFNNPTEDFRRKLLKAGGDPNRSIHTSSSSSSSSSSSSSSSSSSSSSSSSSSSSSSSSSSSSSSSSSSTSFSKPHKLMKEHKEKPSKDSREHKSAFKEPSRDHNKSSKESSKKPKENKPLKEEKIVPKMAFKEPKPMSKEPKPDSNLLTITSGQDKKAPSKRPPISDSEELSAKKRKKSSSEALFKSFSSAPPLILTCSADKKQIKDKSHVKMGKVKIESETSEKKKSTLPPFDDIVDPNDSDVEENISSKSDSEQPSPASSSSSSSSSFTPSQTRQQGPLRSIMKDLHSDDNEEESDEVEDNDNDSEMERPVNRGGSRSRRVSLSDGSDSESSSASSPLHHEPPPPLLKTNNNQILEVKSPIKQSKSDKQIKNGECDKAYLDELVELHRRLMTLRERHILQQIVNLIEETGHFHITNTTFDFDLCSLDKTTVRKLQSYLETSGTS
T cruzi repl: blocks replication of Trypanosoma cruzi | inhibition, % (test concentration not listed) | 300,000 compounds, 1.4% hits | T. cruzi beta-gal in NIH3T3, luminescence, 90 h;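 active = mean inhibition across valid replicates above about 55%, limit read from the data; inconclusive = mean below that limit but half or more replicates reach it; inactive = mean below it, under half of replicates reach it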;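 note: signal also drops with host cell toxicity which is not excluded here; 0% = plate median of DMSO wells and 100% = zero luminescence signal; higher percent means less beta-gal luminescence so fewer parasites; stock transfer was 50 nL into about 50 µL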
* = called active by the depositor; ? = inconclusive; nt = no result given; & = joins results of further samples.

SMILES	Calb FLC	Vif TR-FRET	RanGTP-Imp inh	LANA-H2A inh	Beta apoptosis	Bfl-1 A1 inh	AF4-AF9 inh	T cruzi repl
Cc1ccsc1/C=N/NC(=O)Cn1nc(C)c([N+](=O)[O-])c1C	-10	27%	-0.9	2.9	-13	1.2	-1.8	3
CC(=O)c1cccc(OC(=O)c2cc(S(=O)(=O)N3CCOCC3)ccc2N2CCCC2)c1	nt	8%	nt	1.7	4	0.8	2.8	nt
O=C(/C=C/Nc1ccccc1OC(F)(F)F)C(F)(F)F	-7	-2%	-1.2	-0.5	nt	0.4	nt	2
CCOc1ccc(-c2cc(C(=O)NCCCn3ccnc3)c3cc(Br)ccc3n2)cc1	8	nt	5.8	1.1	108*	0.1	2.0	48
O=C(NCCCNC(=O)c1ccc(F)cc1)c1ccc(F)cc1	-4	nt	6.1	1.4	-6	2.0	-3.7	-3
COc1ccc([C@@H]2[C@@H]3C(=O)N(C(C)(C)C)C(=O)[C@@H]3[C@]3(CC(C)C)C(=O)N(c4ccc(C(F)(F)F)cc4)C(=O)N23)cc1	8	nt	0.2	3.3	9	0.3	-1.4	-24
COc1ccc(Br)cc1C1SCCN1S(C)(=O)=O (stereo not drawn)	-5	-4%	0.2	1.0	2	0.0	nt	7
CCOC(=O)Nc1ccc(N2CCOCC2)c(S(=O)(=O)Nc2ccc(Cl)cc2)c1	nt	nt	nt	-4.1	11	0.4	-3.6	nt
CCOn1c(=O)c(-c2cc3ccccc3o2)[n+]([O-])c2ccccc21	7	-8%	-5.2	-1.4	2	-3.1	nt	13
CCOC(=O)C[C@H]1c2cc(F)ccc2S(=O)(=O)N1C(C)C	-3	nt	-2.9	-3.3	-9	1.5	-0.8	-17
CC1CCN(C(=S)NCCc2ccccc2)CC1	-25	-3%	3.2	-1.3	2	0.7	nt	3
c1ccc(CN2CCN(c3nc(N4CCOCC4)c4ccccc4n3)CC2)cc1	12	nt	2.7	0.4	-3	-0.1	nt	37
Cc1ccc2cc(CN(CCc3ccccc3)C(=S)NCCCN(C)C)c(=O)[nH]c2c1	-10	4%	-3.6	-4.6	-1	1.1	14	31
Cc1nc(N2CCN(Cc3ccc4c(c3)OCO4)CC2)nc2c1C(=O)CC(c1ccco1)C2 (stereo not drawn)	-38	?	-3.2	-2.7	2	0.4	nt	48
CC(C)Sc1nc2c(c(=O)n1C)SC(C)C2 (stereo not drawn)	-1	3%	-1.5	3.4	8	-0.1	3.0	2
CCN1C(=O)c2ccccc2S(=O)c2ccc(C(=O)N3CCCC3)cc21 (stereo not drawn)	8	69%	3.2	5.8	4	-1.2	10	4
Cc1ccc(C(=O)N2CCN(S(=O)(=O)c3ccc(C(C)C)cc3)CC2)s1	-15	-2%	3.7	2.6	2	-0.1	-9.1	6
CCOc1ccc(S(=O)(=O)N(C)C)cc1-c1nc2c(C(C)(C)C)nn(C)c2c(=O)[nH]1	-1	26%&-4%	4.5	-0.1	2	-0.4	nt	18
COc1ccc(CN2CCCCCC2)cc1OC	0	nt	1.1	0.8	-1	0.6	1.1	15
C=CCn1c(=O)/c(=C2/Sc3ccccc3N2CC)s/c1=C1/C(=O)NN=C1C	?	-8%	-4.3	-8.9	32	-0.7	nt	52
CCOC(=O)C(Cc1ccc(O)cc1)NC(=O)CNC(=O)C1CCCN1C(=O)OC(C)(C)C (stereo not drawn)	-9	-1%	3.2	5.0	-4	0.8	0.3	-15
Cc1sc2nc(CN3CCCC3)nc(Cl)c2c1C	1	23%	-0.4	3.6	-11	0.5	nt	-11
O=C(Oc1cccnc1)c1ccc([N+](=O)[O-])cc1Cl	1	27%	5.1	-2.7	1	-0.2	-1.0	2
COc1cc(/C=C2\SC(=O)NC2=O)ccc1Oc1ccc([N+](=O)[O-])cn1	25	4%	-0.8	1.2	18	-0.6	11	-51
OCCN1CCN(C2Cc3cc(Cl)ccc3Sc3ccc(Cl)cc32)CC1 (stereo not drawn) (tested in a mixture with another compound)	2	0%	2.5	1.2	101*	-0.5	nt	14
O=C(CSc1nc(-c2ccccc2)c(-c2ccccc2)o1)NCCCO	15	nt	5.1	-4.7	nt	0.5	2.9	-26
CCCN1CNC(=S)N(c2cc(C)ccc2C)C1	37	4%	1.2	-11	0	0.5	nt	0
Cc1cccc(N(C)S(=O)(=O)c2ccc3[nH]c(=O)c(=O)[nH]c3c2)c1	-12	3%	-2.3	14	-15	1.0	nt	-22
COc1cccc(Oc2coc3cc(OC(=O)N4CCOCC4)ccc3c2=O)c1	-10	-2%	?	-0.8	3	-0.3	0.1	-31
COc1cc(NS(=O)(=O)c2ccc(NC(=O)C34CC5CC(CC(C5)C3)C4)cc2)ncn1	-4	-1%	-14	-3.7	7	0.6	nt	6
COC(=O)c1sc(NC(=O)c2ccc([N+](=O)[O-])o2)c(C#N)c1C	32	9%	6.1	5.8	24	-1.0	9.9	57*
CCOc1cccc(NC(=O)c2cccc(F)c2)c1	-21	4%	-0.9	4.3	-6	0.3	-2.2	15
Cc1cc2occ(CC(=O)N(CC(C)C)c3c(N)n(Cc4ccccc4)c(=O)[nH]c3=O)c2cc1C	-36	-1%	-1.8	-1.2	-5	0.0	-0.5	-3
CCc1nnc(NS(=O)(=O)c2ccc(NCc3cc(Cl)cc(Cl)c3O)cc2)s1	9	nt	-5.4	1.2	-2	0.5	1.0	-4
COC(=O)c1cccc(Cn2nc(C)c([N+](=O)[O-])c2C)c1	-3	-2%	-4.1	-6.0	-5	0.5	2.2	-13
CC(C)C(=O)NC(=S)Nc1ccc(S(=O)(=O)NC2CCCCC2)cc1	17	-7%	8.5	2.2	1	0.5	-0.3	12
C=CCOc1ccccc1CN1CCC(n2nccc2NC(=O)C2CC2)CC1	3	nt	5.7	nt	nt	nt	1.8	4
CC(C)CCSc1nc2c(c(=O)[nH]c(=O)n2C)n1CCc1ccccc1	2	-1%	-1.4	0.2	-1	-0.3	nt	9
CC(C)OCCCNC(=O)CN1C(=O)COc2ccc(S(=O)(=O)N3CCCCCC3)cc21	-10	0%	-0.8	nt	nt	nt	-2.2	-12
C/C(=N\N1CCN(C2c3ccccc3-c3ccccc32)CC1)c1ccco1	2	1%	-3.2	2.3	nt	-0.4	4.2	-12
CCOC(=O)N1CCN(C(=O)c2c[nH]c3ccc(S(=O)(=O)N(C)c4cccc(C)c4)cc3c2=O)CC1	3	-1%	2.9	-2.9	-3	-0.6	0.1	-12
CCOC(=O)c1sc(=S)n(-c2cccc(C(F)(F)F)c2)c1SC	-12	-19%	-0.7	0.3	0	0.6	nt	-9
CCOc1ccc2nc(N/C(N)=N/C(=S)Nc3ccc(C)c(C)c3)nc(C)c2c1	-19	-5%	5.6	-0.6	-1	-0.1	-6.8	?
C[C@]12C=CC(=O)C=C1CC[C@@H]1C2=CC[C@]2(C)[C@@H](C(=O)CN3CCN(c4cc(N5CCCC5)nc(N5CCCC5)n4)CC3)CC[C@@H]12	nt	nt	65*	0.2	10	2.4	5.7	40
CCOC(=O)c1sc(N(Cc2ccccc2)C(=O)COC(=O)c2ccccc2O)nc1C	5	6%	-3.2	-5.2	-2	-0.2	-2.7	8
Oc1c(Cl)cc(Cl)cc1CNc1ccc(Br)cn1	-4	-1%	2.5	-6.2	-1	-0.5	nt	-5
CC(C)OP(=O)(c1ccccc1)c1ccccc1	-4	nt	3.0	-5.5	-5	0.1	2.9	2
Cc1ccccc1NC(=O)C1CCN(S(=O)(=O)c2ccc3c(c2)NC(=O)C(C)S3)CC1 (stereo not drawn)	1	nt	7.8	-0.4	7	0.2	0.6	-3
Cc1ccc(CNC(=O)COC(=O)COc2ccc(C#N)cc2)cc1	nt	-8%	nt	0.2	-3	-0.3	?	nt
CCCN(c1ccccc1C(=O)O)S(=O)(=O)c1ccc2c(c1)n(C)c(=O)n2C	-1	3%	3.5	-0.7	-5	-0.6	0.5	-11
Carrying on.
SMILES	Calb FLC	Vif TR-FRET	RanGTP-Imp inh	LANA-H2A inh	Beta apoptosis	Bfl-1 A1 inh	AF4-AF9 inh	T cruzi repl
CC1CCCCC1NC(=S)NC(=O)c1ccccc1Br (stereo not drawn)	2	-3%	-1.5	-1.6	3	0.8	nt	6
Fc1cnc(N2CCc3ccccc32)nc1N1CCc2ccccc21	?	-6%	1.6	0.7	0	0.1	nt	-19
Cc1ccccc1C(=O)NCCCNC(=O)c1ccccn1	-2	?	2.6	-0.7	1	0.0	5.0	-8
O=C(Cc1cccs1)Nc1nnc(SCc2ccc(F)cc2)s1	-1	nt	3.3	1.7	-2	0.5	nt	3
COc1ccc(C(=O)NCC(C)(C)CNC(=O)c2ccc(OC)c(OC)c2)cc1OC	-25	nt	?	4.3	-2	0.0	0.5	-10
CCOC(=O)C1=C(Nc2ccccc2)OCC1=O	-2	4%	0.4	5.0	3	-0.2	nt	-14
CCOC(=O)C1=C(C)NC(SCc2cc(=O)[nH][nH]2)=C(C#N)C1c1cccs1 (stereo not drawn)	-2	-2%	5.9	-0.6	-2	-1.1	3.3	-10
CC(C)N1C(=O)/C(=C/c2nc3ccccc3c(=O)n2-c2ccccc2)c2ccccc21	-5	19%	4.3	-2.5	24	0.0	nt	77*
CCOC(=O)N1CCN(C(=O)C2CCN(S(=O)(=O)c3ccc(Cl)cc3)CC2)CC1	-8	0%	-3.5	0.8	5	-1.0	nt	2
C=CCOc1ccc(CNC(C)(C)CO)cc1OCC	0	4%	1.7	0.8	0	0.1	nt	-12
COc1ccccc1CNC(=O)CCCNC(=O)Cn1cnc2sc(C)c(C)c2c1=O	5	nt	2.6	-1.0	-4	-0.1	0.2	-3
Cc1ccc(S(=O)(=O)N2CCN(C(=O)COC(=O)Cc3ccc(Cl)cc3)CC2)c(C)c1	nt	-9%	nt	3.0	-7	-0.2	-1.6	nt
C=CCc1cccc(C=Nc2ccc(Br)cc2)c1O	1	-2%	-1.2	2.9	-2	0.1	-0.2	-15
COc1ccc(/C=N/NC(=O)c2ccc(CSc3nc(C)cc(C)n3)cc2)cc1O	-12	8%	3.3	-0.5	0	0.2	0.8	-11
CCCNC(=O)CCc1c(C)nc2c(c(C)nn2-c2ccccc2)c1C	3	0%	-0.7	1.5	5	0.5	-0.2	28
Cc1ccc(-c2nn(-c3ccccc3)cc2C(=O)OCC(=O)Nc2ncc(Cl)cc2Cl)cc1	-1	-50%	7.8	-5.0	5	0.3	0.8	11
Cc1cc(C)n(-c2ccc(C(=O)N3CCN(c4ccccn4)CC3)cc2)n1	nt	1%	nt	8.2	-3	-0.5	-2.0	nt
Cc1ccc(CNC(=O)Cn2nnc3ccccc3c2=O)cc1	-6	5%	-3.3	-2.6	1	-0.5	-1.9	-7
CCOC(=O)C1CCCN(c2c(Nc3cc(C)cc(C)c3)c(=O)c2=O)C1 (stereo not drawn)	-5	-1%	-0.7	2.0	3	0.2	0.8	14
CC(NS(=O)(=O)c1ccccc1)C(=O)NC1CCCC1 (stereo not drawn)	-3	nt	6.2	3.3	2	0.5	-3.0	-20
COc1cccc(NC(=O)c2ccc(-c3ccc([N+](=O)[O-])cc3)o2)c1	0	-1%	?	2.9	1	-0.9	1.1	-2

Compound activity deposited in PubChem by several laboratories.

Not a hit list; overall some 4.3% were active at least once.
